Bioassay records deposited in PubChem by several laboratories.
PTPN22 inh 2: LYP (human) phosphatase inhibition; recombinant LYP catalytic domain, DiFMUP fluorescence; inhibition, % at 2 µM; hit rate 0.21% among 96,000; AID 640;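 active means inhibition at 2 µM at or above a set limit, the screen mean plus 3 SD, cut at about 24% in these data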;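 further: 0% = DMSO with enzyme and 100% = enzyme fully blocked by orthovanadate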
cytoskel mod: modifiers of cytoskeleton assembly | HUVEC TNFa F-actin phalloidin imaging, high content | inhibition, % at 2 µM | hit rate 0.18% among 91,000 | AID 836;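 active means inhibition above the batch mean plus 3 SD and confirmed as a hit by visual image inspection, cut at about 30% in these data, passing the limit was not always enough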; further: strong numbers were not always called active
TNFa cytotox: toxic to HUVEC cells under TNF alpha stimulation | cell count reduction, % at 2 µM | HUVEC TNFalpha-stimulated, Hoechst cell count, imaging | hit rate 0.17% among 93,000;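 active means cell count reduction exceeding the screen mean by over 5 SD, scaled to untreated wells per plate, cut at about 78% in these data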;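 further: cells counted after 24 h of TNF alpha exposure following the 1 h pretreatment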
Smad3 inh: inhibitors of human Smad3 transcription factor binding; P84022; TR-FRET Smad3/Dy647-FoxH1 peptide binding, europium anti-His; inhibition, % at 25 µM; hit rate 0.29% among 88,000; AID 630;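 active means compounds that reduce the energy-transfer binding signal between the protein and its labelled peptide by more than half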;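 further: 0% = Smad3 plus labelled peptide maximal FRET and 100% = peptide-only background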
Calb biofilm kill: kills Candida albicans biofilms. inhibition, % at 6 µM. AID 834. hit rate 0.14% among 85,000. C. albicans biofilm + clotrimazole, Alamar Blue;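 active means inhibition above 20%; inactive means inhibition below 20%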;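 further: preformed 24 hr biofilms exposed to compound for 48 hr; 0% = biofilm without compound and 100% = blank killed by clotrimazole plus chlorhexidine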
Active calls of the source: *; . = no result given; & = joins results of further samples; [ ] = remark or other dose. This is a subset. The share of hits here may be higher or lower than overall.

[1] COC1=CC(=O)CC(C)C12Oc1c(Cl)c(OC)cc(OC)c1C2=O (centres undefined)
[2] Nc1ccc(Oc2ccc(Cl)cc2)cc1
[3] COc1cc(/C=C/C(=O)CC(=O)/C=C/c2ccc(O)c(OC)c2)ccc1O
[4] CC(C)(C)c1ccc(C(O)CCCN2CCC(C(O)(c3ccccc3)c3ccccc3)CC2)cc1 (centres undefined)
[5] COc1ccc(Cl)cc1C(=O)NCCc1ccc(S(=O)(=O)NC(=O)NC2CCCCC2)cc1
[6] CC(C)(Sc1cc(C(C)(C)C)c(O)c(C(C)(C)C)c1)Sc1cc(C(C)(C)C)c(O)c(C(C)(C)C)c1

Compound	1	2	3	4	5	6
PTPN22 inh 2	.	0	.	.	.	.
cytoskel mod	.	-8	.	.	.	.
TNFa cytotox	.	-4	.	.	.	.
Smad3 inh	2	14	-17	4	8	0
Calb biofilm kill	10	7	9	9	11	12

[7] COc1ccc(CCN2CCC(Nc3nc4ccccc4n3Cc3ccc(F)cc3)CC2)cc1
[8] NC1C2CN(c3nc4c(cc3F)c(=O)c(C(=O)O)cn4-c3ccc(F)cc3F)CC12 (centres undefined)
[9] CN1Cc2c(N)cccc2C(c2ccccc2)C1 (centres undefined)
[10] CN(C)CCCN1c2ccccc2CCc2ccc(Cl)cc21
[11] c1ccc(-c2nc[nH]c2-c2ccccc2)cc1
[12] COc1ccc2cc([C@H](C)C(=O)O)ccc2c1

Compound	7	8	9	10	11	12
PTPN22 inh 2	.	20	.	.	4	.
cytoskel mod	.	.	.	.	-64	.
TNFa cytotox	.	-11	.	.	-2	.
Smad3 inh	5	.	-3	-1	12	5
Calb biofilm kill	9	.	0	2	8	16

Quoted at random: 2 compounds from above, in no set order.
[9] CN1Cc2c(N)cccc2C(c2ccccc2)C1 (centres undefined)
[10] CN(C)CCCN1c2ccccc2CCc2ccc(Cl)cc21

Compound	9	10
PTPN22 inh 2	.	.
cytoskel mod	.	.
TNFa cytotox	.	.
Smad3 inh	-3	-1
Calb biofilm kill	0	2

Other structures follow:
[13] CN(C)c1nc(N(C)C)nc(N(C)C)n1
[14] Nc1nc(-c2ccccc2)cs1
[15] CC(C)OC(=O)C(C)(C)Oc1ccc(C(=O)c2ccc(Cl)cc2)cc1
[16] Cc1nn2cc(-c3ccc(Cl)cc3)nc2s1
[17] Cn1c(=O)c2[nH]cnc2n(C)c1=O
[18] CN(C)CCCN1c2ccccc2Sc2ccc(Cl)cc21

Compound	13	14	15	16	17	18
PTPN22 inh 2	.	-8	.	-1	.	10
cytoskel mod	.	-1	.	-13	.	-12
TNFa cytotox	.	-11	.	-2	.	-1
Smad3 inh	5	12	-1	-4	-3	1
Calb biofilm kill	-3	-4	9	5	7	7

Quoted from the listing:
Entry of #15 in Smad3 inh: -1
Entry of #16 in cytoskel mod: -13

Single records, from the list above. Order of screens: PTPN22 inh 2	cytoskel mod	TNFa cytotox	Smad3 inh	Calb biofilm kill
Listed for `CN(C)c1nc(N(C)C)nc(N(C)C)n1` : .	.	.	5	-3
Listed for `CN(C)CCCN1c2ccccc2Sc2ccc(Cl)cc21` : 10	-12	-1	1	7
Listed for `Cn1c(=O)c2[nH]cnc2n(C)c1=O` : .	.	.	-3	7
Listed for `CC(C)OC(=O)C(C)(C)Oc1ccc(C(=O)c2ccc(Cl)cc2)cc1` : .	.	.	-1	9
Listed for `Cc1nn2cc(-c3ccc(Cl)cc3)nc2s1` : -1	-13	-2	-4	5

Continuation:
[19] O=c1n(CCCN2CCN(c3cccc(Cl)c3)CC2)nc2ccccn12
[20] CN1[C@@H]2CC(OC(=O)[C@H](CO)c3ccccc3)C[C@H]1[C@@H]1O[C@@H]12 (some centres undefined)
[21] OC(CNCC1CCCO1)Cn1c2ccccc2c2ccccc21 (centres undefined)
[22] CC(=O)Nc1c(I)c(NC(C)=O)c(I)c(C(=O)O)c1I
[23] COc1ccc2nc(N)sc2c1
[24] CC(=O)Oc1ccc(C(c2ccc(OC(C)=O)cc2)c2ccccn2)cc1

Compound	19	20	21	22	23	24
PTPN22 inh 2	.	.	-7	.	-15	.
cytoskel mod	.	.	-5	.	11	.
TNFa cytotox	.	.	-24	.	-8	.
Smad3 inh	-11	14	15[fluorescence artefact?]	3	6	2
Calb biofilm kill	-4	3	8	8	6	13

[25] NCc1ccc(S(N)(=O)=O)cc1
[26] CCn1nc(C(=O)O)c(=O)c2cc3c(cc21)OCO3
[27] COc1cc2nc(N3CCN(C(=O)C4CCCO4)CC3)nc(N)c2cc1OC (centres undefined)
[28] CCS(=O)(=O)CCn1c([N+](=O)[O-])cnc1C
[29] CN(C)CCOC(c1ccccc1)c1ccccc1 (tested in a mixture with another compound)

Compound	25	26	27	28	29
PTPN22 inh 2	.	.	8	.	.
cytoskel mod	.	.	8	.	.
TNFa cytotox	.	.	-1	.	.
Smad3 inh	-4	0	-4&-6	-3	9
Calb biofilm kill	-3	9	-2&9	13	10
